# StopGo RLuc = FMDV 2A StopGo reporter, Renilla signal; HEK cells with a luciferase reporter of 2A StopGo recoding; AID 1745857; 0.32% of 120,000 active; Potency, µM (highest dose often 57.5 µM), without a hit: top-dose signal change, negative = less light; active means well fitted falling curve with a large enough effect; inconclusive means small, poorly fitted or top-dose-only effect; inactive means no such curve, though single readings can be large or run the other way; also: nearly all actives have a fitted effect of over 55% in size; overnight with compound
# 2A firefly = lowers the firefly signal of an FMDV 2A StopGo reporter; 0.23% of 120,000 active; HEK cells with a luciferase reporter of 2A StopGo recoding; Potency, µM (highest dose often 57.5 µM), without a hit: top-dose signal change, negative = less light; active = well fitted falling curve with a large enough effect; inconclusive = small, poorly fitted or top-dose-only effect; inactive = no such curve, though single readings can be large or run the other way; also: nearly all actives have a fitted effect of over 60% in size; overnight with compound
# The depositor's hits bear a star; ? = inconclusive; & = joins results of further samples; [ ] = dose if it differs, or a comment. % is scaled to controls: 0 for no effect and ±100 for the full control effect; potency is read from the fitted curve at half-maximal effect.
# The line under a structure holds: StopGo RLuc, 2A firefly
- CC(=O)c1ccc(NC(=O)c2cc(-c3ccc4c(c3)OCO4)on2)cc1
 : -3%, 20%
- O=C(NCc1ccc(CN2CCCCC2)cc1)c1ccc(F)cc1Br
 : -19%, -8%
- CCCNc1c(NC(=O)C2CCC(C)CC2)c(=O)oc2ccccc12 (stereo not given)
 : 14%, 11%
- CCOC(=O)c1ccc(NC(=O)C2CCN(S(=O)(=O)c3ccc4c(c3)CCCC(=O)N4)CC2)cc1
 : 21%, 30%
- COc1ccc(CCNC(=O)Cn2c(=O)c3cccn3c3ccc(F)cc32)c(OC)c1
 : -11%, -19%
- Cc1ccc(S(=O)(=O)c2nnn3c2nc(NC(C)C)c2sccc23)cc1
 : 6%, -15%
- COc1ccc(NC(=O)CSc2nc3ccccc3nc2N2CCCC2)cc1
 : 29%, 22%
- COc1ccccc1CNC(=O)CCn1c(=O)c2ccccc2n(CC(=O)Nc2cc(Cl)ccc2C)c1=O
 : -9%, -11%
- Cc1ccc(CN2CCC(CNS(=O)(=O)c3csc(C(N)=O)c3)CC2)cc1
 : 3%, 5%
- NS(=O)(=O)Cc1ccc(CNC(=O)c2cccc(F)c2)cc1
 : -1%, 9%
- CC1CCCCN1CCNC(=O)CCc1nc2ccccc2[nH]1 (stereo not given)
 : -8%, 5%
- COc1cc(OC)c(NC(=O)Cc2ccc(-n3c(C)nc4cccnc43)cc2)cc1Cl
 : -13%, 0%
- CCc1ccc2[nH]c(C)c(CC(=O)NC(C)c3ccccc3)c2c1 (stereo not given)
 : 20%, -4%
- COC(=O)[C@]12C[C@H](CC(=O)N3CCOCC3)C(=O)N(Cc3ccco3)C1=C[C@H](C(C)C)O[C@@H]2C1CC1
 : 26%, 1%
- CCOC(=O)Cn1c(=O)cc(C(F)(F)C(F)(F)F)c2c(C)nn(CC)c21
 : 0%, -2%
- COc1ccc(CNC(=O)C2Cc3ccccc3S2)cc1OC (stereo not given)
 : 22%, 145%[activator]
- O=S(=O)(NCC1CN(Cc2ccccc2)CCO1)c1ccccc1 (stereo not given)
 : 3%, -5%
- O=C(CSc1nnc2ccc(-c3ccccc3)nn12)NCc1ccc2c(c1)OCO2
 : 22%, 13%
- CCCc1ccc(-c2cc(C(=O)Nc3cccnc3)c3ccccc3n2)cc1
 : -14%, 108%[activator]
- O=C(NCC(c1cccs1)S(=O)(=O)c1cccs1)c1cccc(F)c1 (stereo not given)
 : 0%, -4%
- Cc1ccc(C(=O)NCc2ccc(N(C)C)cc2)cc1NC(=O)c1nsc2ccccc12
 : 15%, 48%[activator]
- CCCN(CC1CC1)c1oc(-c2ccc(Cl)cc2)nc1C#N
 : 30%, 34%[activator]
- COc1ccc2cc(C(=O)NCc3ccccc3CN3CCCC3)c(C)nc2c1
 : -20%, -12%
- C=CCNc1nc2c(c(=O)[nH]c(=O)n2C)n1Cc1ccccc1Cl
 : 9%, 12%
- COc1ccc(Cn2c(CNC(=O)Cc3ccc(OC)c(OC)c3)nc3cccnc32)cc1
 : -12%, -14%
- COc1ccc(-c2c(C)nn3c(-c4ccccc4)cc(-c4ccccc4)nc23)cc1
 : -11%, -6%
- COc1cccc(CNC(=O)c2ccc3nc(CCc4ccccc4)oc3c2)c1OC
 : 0%, 55%[activator]
- CCOc1ccc(S(=O)(=O)N(CC(=O)N2CCC(C(N)=O)CC2)c2ccccc2)cc1
 : 9%, -2%
- O=C(COc1ccc([N+](=O)[O-])c(F)c1)Nc1ccc2c(c1)CCC2
 : 0%, 0%
- Cc1ccccc1-c1nc2scc(CCNC(=O)c3ccco3)n2n1
 : -18%, -8%
- COc1ccc(C)cc1-c1csc(NC(=O)c2ccccc2OCc2noc(C)n2)n1
 : -3%, -1%
- Cc1nc2ccc(C(=O)NCCCN3CCCCC3)cc2nc1C
 : -5%, 0%
- COc1ccc(CC(=O)N2CC(=O)Nc3ccc(Br)cc3C2c2ccc(F)cc2)cc1 (stereo not given)
 : 0%, -25%
- Cc1ccc(C)c(N2CCN(C(=O)c3cc(C)nc4c3c(C)nn4-c3cccc(F)c3)CC2)c1
 : 7%, 8%
- COc1ccc2[nH]cc(C(C(=O)O)N3CCN(CC(=O)N(C)C)CC3)c2c1 (stereo not given)
 : -13%, -13%
- O=Cc1ccc2[nH]ccc2c1
 : 0%, 7%
- CCCCc1nc(-c2ccc(-c3ccc(C)cc3)nc2OC)no1
 : 24%, 53%[activator]
- Cc1cc(C)c2c(=O)cc(C(=O)Nc3ccc(Cl)cc3)oc2c1
 : -15%, -5%
- O=C(Nc1ccc(Cl)cc1)c1cnc2ccccc2n1
 : -12%, 162%[activator]
- CCCCN(Cc1ccccc1)c1ccc(NS(=O)(=O)c2ccccc2Cl)cc1C(=O)O
 : 80%[activator], 7%
- CC(C)CCn1c(SCCCc2ccccc2)nc2c1c(=O)[nH]c(=O)n2C
 : -14%, -7%
- COc1ccc(C(=O)/C=C/c2ccccc2)cc1OC
 : 39%[activator], 133%[activator]
- Cc1cccc(Cn2cc(C(=O)Nc3ccc(F)c(C(F)(F)F)c3)ccc2=O)c1
 : 2%, -15%
- COc1ccc(C)cc1NC(=O)C(=O)NCCc1sc(-c2cccc(C)c2)nc1C
 : -4%, 8%
- O=C(O)CCC(=O)N1N=C(c2ccsc2)CC1c1ccc(F)cc1 (stereo not given)
 : 5%, 14%
- CCCc1nn2c(=O)cc(COc3ccc(/C=C(\C#N)C(=O)Nc4ccc(F)cc4)cc3)nc2s1
 : -12%, -25%
- Fc1ccc(OCCSc2nc3ccccc3s2)cc1
 : 28%, 40%[activator]
- O=C(Cn1cnc2nc(N3CCOCC3)sc2c1=O)Nc1ccccc1
 : -4%, 13%
- COC(=O)c1ccc(OCc2ccccc2C#N)c(OC)c1
 : 13%, 100%[activator]
- OC(c1nc2ccccc2s1)(c1nc2ccccc2s1)C(F)(F)F
 : 171%[activator], 2%
- Cc1cc(C)cc(OCCC(=O)Nc2c(C)noc2C)c1
 : -4%, -2%
- CCC(Cc1ccccc1)NC(=O)CS(=O)(=O)Cc1nc(-c2ccc(C)cc2)oc1C (stereo not given)
 : -10%, -7%
- O=C(NCc1ccccn1)c1nn(-c2ccccc2Cl)nc1CO
 : 4%, -8%
- Cn1c(NCc2ccc3c(c2)OCO3)nc2c1c(=O)n(Cc1ccccc1F)c(=O)n2C
 : -18%, 0%
- CCN(CC)c1nc2c(S(=O)(=O)c3ccccc3)nnn2c2ccc(Cl)cc12
 : 101%[activator], -16%
- CCc1cccc(C)c1NC(=O)Cn1c(=O)cc(C(F)(F)F)c2c(C)nn(C)c21
 : -15%, -22%
- Cc1cc(C)c(C(N)C(=O)O)c(C)c1 (stereo not given)
 : ?, -21%
- CCOc1ccc(CNC(=O)CCCc2cn(C)c3ccccc23)cc1OC
 : -6%, 18%
- CCOC(=O)c1c(NC(=O)c2cc(=O)c3cc(C)cc(C)c3o2)sc(C)c1C
 : -16%, -3%
- Cc1ccc(NC(=O)CN2C(=O)c3ccccc3Sc3ccc(C(=O)N4CCOCC4)cc32)cc1F
 : -17%, -27%

# Next section:
Compound,StopGo RLuc,2A firefly
CCSc1ncc(Cl)c(C(=O)Nc2nc3ccc(S(C)(=O)=O)cc3s2)n1,-16%,13%
CC1CCN(C(=O)CSc2c3c(nc4ccc(Cl)cc24)CCCC3)CC1,-9%,-25%
CCc1ccccc1NC(=O)c1ccc2nc(C(C)C)oc2c1,43%[activator],63%[activator]
CCN1CCN(c2ccc(NC(=O)c3cccc(S(=O)(=O)NCc4cccs4)c3)cc2)CC1,63%[activator],-5%
CC(C)(S)C(N)C(=O)O (stereo not given),6%,-2%
COc1ccc(C)cc1NC(=O)c1sc2nc(-c3ccc(F)cc3)cn2c1C,-5%,-14%
Cn1c(=O)n(C)c2cc(N3CCOCC3)c(NS(=O)(=O)c3ccc(C(C)(C)C)cc3)cc21,153%&5%[activator],25%&-7%
CCCCc1noc(CN2CCC(c3nc4cc(Cl)ccc4o3)CC2)n1,-7%,3%
CNc1nc(-c2ccc(NC(=O)CC(C)C)cc2)cs1,85%[activator],316%[activator]
CCOc1ccc(-c2nc3c(c(SCC(=O)N4CCCCC4)n2)Cc2cccc(OC)c2O3)cc1,1%,-6%
CC1(C)CCC2=C(C1=O)C(c1ccc(O)cc1)C1=C(CCC(C)(C)C1=O)O2,24%,-6%
O=C(O)CCC(=O)Nc1ccc2[nH]cc(C(C(=O)O)N3CCN(c4cccc(Cl)c4)CC3)c2c1 (stereo not given),0%,-10%
Ic1ccc(-c2nc(-c3ccccn3)no2)cc1,9%,-79%
CCc1ccc(C(=O)COC(=O)CCc2ccccc2)cc1,-16%,0%
COc1ccc(C)cc1NC(=O)CCS(=O)(=O)c1ccc2c(c1)CC(=O)N2C,-14%,-12%
COc1ccc(CNC(=O)C(C)C)cc1,34%,0%
CCOc1ccc(N(C)S(=O)(=O)c2c(C(=O)N3CCC(C)CC3)c(C)n(C)c2C)cc1,58%[activator],-10%
Cc1ccc(-c2nc(SCc3cc(=O)n4nc(C5CC5)sc4n3)n[nH]2)cc1,9%,33%[activator]
O=C(Nc1cn[nH]c1)N1CCCCC1Cc1ccccc1 (stereo not given),-7%,10%
Cc1ccc(-c2csc(=S)[nH]2)cc1,-3%,0%
O=C(CSc1nc2ccccc2n1Cc1cccc(F)c1)NCc1ccccc1,29%,4%
Fc1cccc(Cl)c1CSc1nnc2c(Cl)cc(C(F)(F)F)cn12,0%,2%
N#Cc1ccc(C(=O)/C=C/c2cc3ccccc3nc2N2CCOCC2)cc1,-18%,-17%
Cc1cccn2cc(COc3ccccc3C(=O)O)nc12,20%,52%[activator]
Cc1ccc(Cn2c(C)c3cnn(CC(=O)N4CCN(c5ccc(F)cc5)CC4)c(=O)c3c2C)cc1,?,?
CCCCCC(=O)NC(N1CCCCC1)C(Cl)(Cl)Cl (stereo not given),-2%,4%
Cc1cnc2c(S(=O)(=O)N(C)C3CCCCCC3)cccc2c1,157%[activator],3%
COc1ccc(OCC(O)Cn2c(=N)n(CCN3CCCCC3)c3ccccc32)cc1 (stereo not given),-8%,-34%
COc1ccc(-c2cn3nc(N4CCC(C(=O)Nc5cccc(C)c5C)CC4)sc3n2)cc1,-13%,42%[activator]
COc1cc(COC(=O)c2cc(OC)c(OC)c(OC)c2)cc(Cl)c1OC(F)F,-8%,-15%
Cc1cc(N(Cc2ccccc2F)C2CC2)n2nc(C(F)(F)F)nc2n1,?,?
CSc1ccc(CNC(=O)C2CCN(c3nc4ccccc4nc3C(F)(F)F)CC2)cc1,-2%,-11%
C=Cc1ccc(Cn2nc(-c3ccc(C)c(S(=O)(=O)N4CCCC4)c3)ccc2=O)cc1,29%,15%
CCCCCCCCCCCCOCCO,-4%,-3%[11.5 µM]
COc1ccc2c(c1)c1c(c(=O)n(-c3ccccc3)c(=O)n1CC(=O)Nc1ccc(C)c(C)c1)n2C,-10%,2%
CNC(=O)NC(=O)CN(CC(=O)N(C)C)CC(F)(F)F,-14%[1.06 µM],0%
O=C(Cc1ccsc1)NCc1cccs1,-4%[1.06 µM],28%
COc1cccc(-c2nc3ccccc3c(=O)n2NC(=O)c2ccc(F)cc2Cl)c1,29%,34%[activator]
CN=c1scc(C)n1/N=C/c1ccco1,0%,0%
COCCn1c(Cc2c(Cl)cccc2Cl)n[nH]c1=S,3%,-5%
Cc1cccc(N2CCN(C(=O)CN3C(=O)COc4ccc(S(=O)(=O)N5CCCC5)cc43)CC2C)c1 (stereo not given),10%,9%
CCCN(CCC)C(=O)c1cc2sc3ccccc3c2s1,111%[activator],0%
CC1CC(NN(C)C)C(C#N)(C#N)C(C)C1(C#N)C#N (stereo not given),4%,-10%
COc1ccc(-c2nn3c(=O)c(NC(=O)c4ccccc4C)cnc3o2)cc1,-4%,7%
C=CCn1c(C(C)(C)Oc2ccc(Cl)c(C)c2)n[nH]c1=S,8%,8%
Cn1c(=O)c2c(nc(NC(CO)CO)n2Cc2ccc(Br)cc2)n(C)c1=O,-17%,-9%
Cc1cc(NC(=O)CN2CCN(C(=O)c3cc(F)cc(F)c3)CC2)no1,0%,0%
CNC(=O)C(C)NC(=O)c1cccc(Cl)c1Cl (stereo not given),-6%,-4%
FC(F)(F)c1cccc(-c2csc(-c3cnccn3)n2)c1,2%,94%[activator]
COC(=O)c1ccc(NC(=O)CN(Cc2ccccc2)S(=O)(=O)c2ccc(Cl)cc2)cc1,55%[activator],-15%
Cc1cccc(CNC(=O)c2cnc3c(-c4cccc(C)c4)c(C)nn3c2C)c1,0%,4%
O=C(COc1ncnc2ccc(Br)cc12)N1CCOCC1,-10%,-10%
CCOCCOC(=O)c1nc2ccccc2nc1NCCc1ccc(OC)c(OC)c1,7%,2%
O=C(O)CCCCCc1ccc(CCCCC(=O)O)s1,2%,41%[activator]
COC(=O)c1c(C)[nH]c(C(=O)C(C)OC(=O)c2cccc(O)c2)c1C (stereo not given),-2%,-19%

# Rows were taken by chance. About 0.53% of those tested had a hit in this group.
